# BJeLR lethal – MLPCN primary cell-based screen for lethality selective to Ras in HRASV12 cells; actives 0.17% (n = 300,000); BJeLR (HRASV12) viability, CellTiter-Glo ATP luminescence, 48 h; reference of the scale not given here; AID 1554, 2009; inhibition, % (concentration not given with the values);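 active = replicate mean above 50%; inconclusive = above 50% but judged a plate artefact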;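 also: 50 nL library stock added to about 25 µL; numbers are from one replicate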
# Bead autofluor – compound fluorescence in toxin protease inhibitor counterscreen; compound autofluorescence counterscreen, microsphere flow cytometry; active compounds read high; fluorescence intensity (no concentration beside the values); actives 3.1% (n = 360,000); AID 624483;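 active = at least 3 SD above the mean of all compounds, about 16000 in these data; inconclusive = too few beads counted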;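 also: 100 nL of 1 mM stock went into each well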
# PrP 5UTR inh – inhibition of PrP 5' UTR reporter expression; cell-based PrP 5' UTR mRNA reporter, plate reader; inhibition, % (concentration not given with the values); actives 0.35% (n = 340,000);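 active = every replicate at 50% or more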;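 also: 0 = median of the neutral control wells; tested in H4 reporter cells; numbers are from one replicate; inactives centre near -14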
# Sa ugtP lethal – growth inhibition of ugtP-null S. aureus, primary screen, RN4220 ugtP deletion, OD600. 16 h; some inactives read as strong as hits. growth inhibition, % (test concentration not listed). actives 0.54% (n = 330,000);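 active = z-score under -3 and OD600 up to 0.15 on both plates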;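 also: plate controls were untreated wells for no effect and antibiotic for full effect; wells of about 80 µL received 100 nL stock; the first replicate is given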
# Mtb hypoxia rep – PubChem AID 1159583 | actives 0.1% (n = 300,000) | M. tuberculosis hypoxia-regulated fluorescent reporter, fluorescence | fluorescence inhibition, % (concentration not given with the values);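 active = 35 to 45% if threefold the growth effect, above 45% if 1.5-fold the growth effect; inactive = the rest, general growth blockers included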;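 also: wells of about 50 µL received 100 nL stock; 0% = vehicle wells and 100% = reference inhibitor wells; whole bacteria with a GFP reporter of the hypoxia response; strong numbers were not always called active; many hits fall short of the cut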
# Sa RN4220 lethal – growth inhibition of S. aureus RN4220, primary screen, OD600; 16 h; inhibition, % (concentration not given with the values); actives 0.33% (n = 330,000); AID 1259311, 2017;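 active = z-score of -3 or lower and OD600 up to 0.18 on both plates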;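 also: plate controls were untreated cells for no effect and reference antibiotic for full effect; stock transfer was 100 nL into about 80 µL; one replicate is shown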
# Mtb hypoxia rep growth – second read-out of Mtb hypoxia rep, no call of its own (marks repeat the call); growth inhibition, %; measured here: M. tuberculosis growth (absorbance);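 0% = vehicle and 100% = reference antibiotic; read after six days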
# Active calls of the source: *; ? = inconclusive; · = not tested or not shown.
SMILES,BJeLR lethal,Bead autofluor,PrP 5UTR inh,Sa ugtP lethal,Mtb hypoxia rep,Mtb hypoxia rep growth,Sa RN4220 lethal
C[C@@]12CC[C@H]3OC(=O)C=C3C1CC[C@@]13CC(CCC12)[C@](CO)(O[C@H]1O[C@H](CO)[C@@H](O)[C@H](O)[C@H]1O)C3 (stereo partly specified),8.6,5551,-7.1,-1.7,·,·,0.0
COc1cc(/C=C(\C#N)c2nn(CCO)c(N)c2C#N)cc(OC)c1OC,-3.9,2272,-22.2,5.4,10.6,7.3,2.2
COc1ccc(CC(=O)Nc2ccc(S(=O)(=O)NC(C)C)cc2)cc1,14.1,14686,-6.1,3.7,9.9,9.0,7.2
CCn1c2ccccc2c2cc(C#N)c(N)nc21,-19.1,6370,·,4.1,5.9,6.4,6.0
COc1ccc(OC)c(NC(=O)N2C[C@H]3C[C@@H](C2)c2cccc(=O)n2C3)c1,-1.4,4001,-10.9,3.9,·,·,3.5
Cc1cc(C)cc(N2C(=O)CC(Cn3nc(C)cc3C)C2=O)c1 (stereo unspecified),3.2,·,·,10.9,3.2,4.5,2.2
CC(=C\c1ccccc1)/C=C1/SC(=S)N(CCCC(=O)O)C1=O,-0.3,3354,8.0,48.8,11.4,7.5,19.8
CCOc1ccc(NC(=O)C(=S)NC2CCCCC2)cc1,0.4,4998,-50.3,2.6,3.0,18.6,5.0
Cn1c(=O)cc(Cl)[nH]c1=O,2.2,4758,-13.5,5.6,-2.5,6.9,4.5
COc1cc(CCC(=O)Nc2ccc(C)c(S(=O)(=O)N(C)C)c2)cc(OC)c1OC,7.7,8377,-25.2,7.2,14.7,2.0,6.7
O=C(c1c(Cl)cccc1Cl)N1CCN(c2ncccn2)CC1,-0.2,3731,-31.6,0.4,3.4,5.1,1.3
CCOC(=O)C(=Cc1ccc(Br)cc1)C(=O)OCC,10.7,3702,-8.2,19.7,10.0,-1.8,5.7
CC(C)CCC[C@@H](C)[C@H]1CC[C@H]2[C@@H]3C(=O)C=C4C[C@@H](O)CC[C@]4(C)[C@H]3CC[C@]12C,11.2,4847,48.8,·,·,·,·
COc1ccc(-c2noc(CN(C)CCC3CCCCO3)n2)cc1 (stereo unspecified),2.3,4318,-20.3,4.3,1.9,1.0,0.6
Oc1ccc(/C=N/N2CCN(C3c4ccccc4-c4ccccc43)CC2)cc1,-3.4,4303,-20.8,·,·,·,·
CCN(CC)S(=O)(=O)c1cc(NC(=O)C(C)N2CCN(c3ccccn3)CC2)ccc1C (stereo unspecified),1.6,4598,-11.6,4.9,-2.7,2.5,14.6
COc1ccc(N(C)S(=O)(=O)c2cccc(C(=O)NCC(c3ccco3)N3CCCC3)c2)cc1 (stereo unspecified),-19.8,?,-64.0,4.1,1.2,-4.9,2.4
Cc1ccc(NC(=O)CN(C)CC(=O)N(CC(C)C)c2c(N)n(CC(C)C)c(=O)[nH]c2=O)c(C)c1,·,4077,-75.0,2.3,4.9,-1.8,3.8
CCOC(=O)C1(Cc2cccc(OC)c2)CCN(CCO)CC1,5.6,2259,-4.3,-1.0,8.5,2.5,0.7
Cc1onc(-c2c(F)cccc2Cl)c1C(N)=S,-2.2,4449,-13.2,3.3,8.0,6.4,5.1
CCC(=NNC(=O)c1ccccc1O)c1c(C)[nH]n(-c2ccccc2)c1=O,·,·,·,97.9*,-2.5,-6.4,92.5*
CCn1c(SCC(=O)Nc2nc3ccccc3s2)nnc1-c1ccc(OC)cc1,8.1,3685,-16.8,-5.0,·,·,-6.7
CCOC(=O)c1sc2nc(C)nc(N3CCN(c4ncccn4)CC3)c2c1C,9.0,·,-13.0,18.3,1.3,2.1,2.9
COc1ccc2cc(C#N)c(NC(C)C)nc2c1,2.8,4539,-1.3,2.9,·,·,2.3
NC1=NCC(c2ccccc2)N1CC1CCCCC1 (stereo unspecified),·,·,·,-2.5,21.0,13.3,-1.5
CC1CCCCC12NC(=O)N(CC(=O)NCc1ccccc1)C2=O (stereo unspecified),·,2848,-4.7,4.8,8.0,4.7,2.5
COc1ccccc1CCNC(=O)c1cccc(NC(=O)CC2SC(N3CCCCC3)=NC2=O)c1 (stereo unspecified),·,3435,-17.7,5.8,4.3,7.6,4.2
O=C(Nc1nncs1)c1ccc(Br)c(S(=O)(=O)N2CCCC2)c1,-3.9,6515,-10.7,5.5,-9.0,2.0,1.7
CN(C(=O)COC(=O)c1cc(S(=O)(=O)N2CCCCC2)ccc1N1CCOCC1)C1CCS(=O)(=O)C1 (stereo unspecified),-0.3,3753,0.7,2.6,2.4,1.1,2.5
Cc1ccc(-n2c(Cc3cccs3)nnc2SCC(=O)Nc2ccc(S(N)(=O)=O)cc2)cc1,0.6,6644,-15.3,19.1,3.2,5.0,8.6
Cc1ccc(-c2nnn(CC(=O)N(CC(=O)NCC3CCCO3)c3ccc(F)c(Cl)c3)n2)o1 (stereo unspecified),·,25388*,-8.7,16.4,2.5,1.2,5.7
O=C(NC1CCN(C(=S)Nc2ccccc2)CC1)C1CCCCC1,-16.0,3819,-18.1,0.9,-11.8,-8.3,-1.7
C/C(CC(=O)NCCN1CCOCC1)=N\NC(=O)c1ccncc1,0.9,4248,-5.1,·,·,·,·
Nc1ccc(S(=O)(=O)N2CCC(Cc3ccccc3)CC2)cc1,-8.6,4111,3.4,7.3,-4.3,4.7,-2.2
N#C/C(=C\c1cccs1)C(=O)c1ccccc1,-8.7,5908,-22.4,1.0,18.7,7.0,3.5
COc1ccc(-c2nc(Cn3c(SCc4ccc(C)cc4)nc4ccncc43)c(C)o2)cc1OC,-7.4,5335,-20.5,-1.9,0.4,6.1,-26.6
O=C1CCCCCN1Sc1ccccc1,5.2,4836,-6.9,11.7,·,·,-8.0
CC(=O)OCC(=O)Nc1c(C)cccc1C,13.0,3083,30.8,3.4,1.6,3.0,2.5
CCOc1ccccc1NC(=O)Cn1c(=O)c(OCC)nc2cnccc21,-7.8,5052,-10.9,7.2,0.7,2.4,3.5
CCOC(=O)c1c(-c2ccccc2)nc2c(C)cccn12,5.3,5263,-38.4,5.9,·,·,5.9
O=C(COC(=O)c1cccc(S(=O)(=O)N2CCN(c3ccccc3)CC2)c1)NCc1ccco1,4.4,4545,-15.4,-1.0,·,·,2.7
CCOC(=O)N1CCN(S(=O)(=O)c2ccc(OCC)c3ccccc23)CC1,-0.8,4287,-6.4,0.6,0.9,-3.0,1.7
CCN(CC)C(=O)C1CCCN(C(=O)CCn2nnnc2CN2CCOCC2)C1 (stereo unspecified),-4.3,5400,0.0,8.5,-9.0,-8.3,4.4
C=CCOC(=O)C1=C(C)Nc2nnnn2C1c1ccc(OC)cc1OC (stereo unspecified),-6.9,8240,-0.5,2.4,3.3,1.2,1.2
Cc1ccccc1CNC(=O)c1ccccc1SCC(=O)NCc1ccco1,·,?,-8.3,10.6,7.9,2.9,-10.0

# Arranged by count of non-hydrogen atoms (highest first): some entries from above
SMILES,BJeLR lethal,Bead autofluor,PrP 5UTR inh,Sa ugtP lethal,Mtb hypoxia rep,Mtb hypoxia rep growth,Sa RN4220 lethal
COc1ccc(-c2nc(Cn3c(SCc4ccc(C)cc4)nc4ccncc43)c(C)o2)cc1OC,-7.4,5335,-20.5,-1.9,0.4,6.1,-26.6
O=C(COC(=O)c1cccc(S(=O)(=O)N2CCN(c3ccccc3)CC2)c1)NCc1ccco1,4.4,4545,-15.4,-1.0,·,·,2.7
Cc1ccc(-c2nnn(CC(=O)N(CC(=O)NCC3CCCO3)c3ccc(F)c(Cl)c3)n2)o1 (stereo unspecified),·,25388*,-8.7,16.4,2.5,1.2,5.7
CCN(CC)C(=O)C1CCCN(C(=O)CCn2nnnc2CN2CCOCC2)C1 (stereo unspecified),-4.3,5400,0.0,8.5,-9.0,-8.3,4.4
Cc1ccccc1CNC(=O)c1ccccc1SCC(=O)NCc1ccco1,·,?,-8.3,10.6,7.9,2.9,-10.0
O=C(NC1CCN(C(=S)Nc2ccccc2)CC1)C1CCCCC1,-16.0,3819,-18.1,0.9,-11.8,-8.3,-1.7
Nc1ccc(S(=O)(=O)N2CCC(Cc3ccccc3)CC2)cc1,-8.6,4111,3.4,7.3,-4.3,4.7,-2.2
CCOC(=O)c1c(-c2ccccc2)nc2c(C)cccn12,5.3,5263,-38.4,5.9,·,·,5.9
N#C/C(=C\c1cccs1)C(=O)c1ccccc1,-8.7,5908,-22.4,1.0,18.7,7.0,3.5
CC(=O)OCC(=O)Nc1c(C)cccc1C,13.0,3083,30.8,3.4,1.6,3.0,2.5
O=C1CCCCCN1Sc1ccccc1,5.2,4836,-6.9,11.7,·,·,-8.0

# Later entries:
SMILES,BJeLR lethal,Bead autofluor,PrP 5UTR inh,Sa ugtP lethal,Mtb hypoxia rep,Mtb hypoxia rep growth,Sa RN4220 lethal
Cc1ccc(C)c(Cn2nnc3c(=O)[nH]c(C4CCN(C(=O)c5ccco5)CC4)nc32)c1,5.7,3710,-16.9,58.2,-2.8,12.6,17.7
CCOc1ccccc1CNCC1CCCO1 (stereo unspecified),-14.2,3098,-36.2,8.9,11.1,4.2,1.3
CCCC12CN3CC(CCC)(CN(C1)C3C(O)C(O)C(O)CO)C2=O (stereo unspecified),-1.0,2375,1.7,8.6,·,·,6.6
O=C(CCN1C(=O)c2ccncc2C1=O)Nc1ccc(F)cc1,5.1,9431,-3.8,-0.3,6.8,14.5,2.8
COc1ccc(-c2csc3ncnc(N4CCN(c5cccc(Cl)c5)CC4)c23)cc1,0.1,6013,-16.3,5.9,9.2,-3.4,1.4
COc1cc(C(=O)NNC(=O)c2ccc(NC(=O)C(C)(C)C)cc2)cc(OC)c1OC,18.1,3476,-9.4,5.3,-1.2,3.4,6.1
O=C(NN=Cc1ccc([N+](=O)[O-])o1)c1ccccc1-n1cccc1,·,·,·,29.9,6.8,19.1,33.0
O=C1CN(C(=O)COC(=O)CCc2ccccc2O)c2ccccc2N1,·,6658,-7.3,2.7,-1.3,-9.1,2.2
COc1ccc(-c2cc(C(=O)OCC(=O)Nc3ccc4c(c3)OCO4)c3ccccc3n2)cc1,-9.4,2167,-33.4,-8.8,8.7,9.6,-3.0
COc1ccnc(Oc2ccccc2)c1C#N,16.8,10926,-9.1,-1.8,-5.2,9.8,3.4
Nn1c(COc2ccccc2F)nnc1SCC(=O)NC1CCCC1,-10.9,·,-12.7,3.9,-2.1,-5.1,3.1
CCc1ccccc1OCC(=O)OCC(=O)c1c(N)n(C)c(=O)n(C)c1=O,2.5,4359,-11.3,-7.3,-3.4,-3.7,-4.1
CC(=NNC(=O)c1cccnc1)c1ccc(OC2OCCOC2Oc2ccc(C(C)=NNC(=O)c3cccnc3)cc2)cc1 (stereo unspecified),·,·,·,-4.1,2.2,8.6,3.9
CCCCc1nc(SCCN2CCOCC2)c2c(=O)n(C)c(=O)n(C)c2n1,-3.6,3449,-7.6,6.3,6.7,5.7,7.2
O=S(=O)(c1ccccc1)N1CCCN(S(=O)(=O)c2ccccc2)CC1,-8.6,3888,-29.5,1.6,12.7,2.1,2.1
O=C(Nc1c(Cl)ccc2nsnc12)c1cccnc1,2.5,2517,-2.5,-0.6,-1.3,1.8,0.9
CN(Cc1ccccn1)C(=O)CC1C(=O)NCCN1Cc1ccc(F)cc1Cl (stereo unspecified),11.3,6025,-12.9,9.1,2.8,1.0,4.9
O=C1CCC(c2ccccc2)c2ccccc21 (stereo unspecified),1.5,3268,·,4.8,2.5,19.2,4.7
C[C@H]1O[C@H]1P(=O)(O)O,-12.0,4401,16.1,·,·,·,·
O=C(COC(=O)Cc1c(Cl)cccc1Cl)NCCC1=CCCCC1,6.2,10723,-22.4,-6.5,6.0,4.2,5.6
COc1cc(CCC(=O)NCc2ccc(Cl)cc2)cc(OC)c1OC,2.2,4133,-21.3,0.0,7.6,4.1,1.7
Cc1cc(Cl)c(S(=O)(=O)NC2CCCC2)cc1OCC(N)=O,-15.7,4343,-9.3,6.5,2.9,1.5,0.4
